FEN1 inhibitor: qHTS Assay for the Inhibitors of Human Flap endonuclease 1 (FEN1) | Potency, µM (highest dose often 114 µM), for inactives: at the highest dose activity change, negative = inhibition, hits mostly inhibitors | Recombinant FEN1 flap cleavage, fluorescence, 15 min | AID 588795, 2011 | actives 0.35% (n = 390,000) | P39748; also: nearly all actives have a fitted effect of over 65% in size
Target sequence (P39748 whole entry, looked up): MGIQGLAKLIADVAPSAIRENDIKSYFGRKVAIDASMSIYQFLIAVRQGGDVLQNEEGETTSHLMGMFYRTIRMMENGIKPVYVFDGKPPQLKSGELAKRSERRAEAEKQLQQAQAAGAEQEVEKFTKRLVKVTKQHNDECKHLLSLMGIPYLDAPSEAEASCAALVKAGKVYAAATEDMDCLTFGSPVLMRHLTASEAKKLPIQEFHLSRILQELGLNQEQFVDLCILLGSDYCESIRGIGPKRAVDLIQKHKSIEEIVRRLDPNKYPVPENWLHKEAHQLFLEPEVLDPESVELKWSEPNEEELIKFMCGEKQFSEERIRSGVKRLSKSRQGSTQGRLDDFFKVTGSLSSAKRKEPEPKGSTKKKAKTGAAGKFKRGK
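In this screen, 50 nM flap DNA substrate was added to 10 nM FEN1 pretreated with compound for 15 min at room temperature; cleavage was followed with reads at 0 and 15 min, and Hill fitting gave concentration–response parameters.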
N370S GC mod: qHTS Assay for Inhibitors and Activators of N370S glucocerebrosidase as a Potential Chaperone Treatment of Gaucher Disease. actives 0.092% (n = 330,000). Potency, µM (series often up to 59.4 µM), for the others: at the top dose activity change, negative = inhibition, most hits filed as inhibitors. Lysosomal acid glucosylceramidase (Homo sapiens), P04062. N370S GC spleen homogenate, 4MU-glucoside fluorescence;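 also: 0% = full enzyme activity and -100% = no enzyme basal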
Numbers without * were called inactive; u = inconclusive; x = no result given; & = joins results of further samples; [ ] = remark or other dose. Calls follow the shape of the dose curve; as a rule, active = well fitted curve in the direction sought with a large enough effect; inconclusive = small, poorly fitted or top-dose-only effect, or another doubt; inactive = no such curve, though single readings can be large; an effect the other way counts as inactive or inconclusive. Unless noted, % is scaled to controls: 0 for no effect and ±100 for the full control effect; potency is read from the fitted curve at half-maximal effect. These rows are one share of the data, and most or all hits are left out here.

SMILES | FEN1 inhibitor | N370S GC mod
CCCn1c(NC(=O)CN2C(=O)NC3(CCCC3)C2=O)nc2ccccc21 | 1.4% | -5.6%
CSc1c(CC(=O)Nc2ccc(F)cc2)n(Cc2ccccc2)c2ccccc12 | -3.0% | 5.5%
N#Cc1c2ccc(OCC(N)=O)cc2n2ccccc12 | u | 1.7%
O=C(c1cccnc1)N(c1cc2sc(=O)oc2c2ccccc12)S(=O)(=O)c1ccccc1 | u | -27.4%
Cn1c(CCN2CCCC2)nc2cc(NS(=O)(=O)c3ccccc3)ccc21 | -13.9% | -0.5%
Cc1cccc(C)c1OC(=O)C(c1ccccc1)c1ccccc1 | 6.2% | 3.2%
O=CN1CCN(C2CC(=O)N(c3ccc4c(c3)OCO4)C2=O)CC1 (stereo not given) | 10.6% | 2.2%
CNc1oc(-c2ccc(F)cc2)nc1S(=O)(=O)c1ccccc1 | 14.1% | 0.3%
Cc1ccc(C(=O)N2CCN(C3CCCCC3)CC2)s1 | -5.9% | 15.3%
CC(=O)OC(C)C(=O)NS(=O)(=O)c1ccc(C)cc1 (stereo not given) | 11.1% | -4.7%
O=C(Nc1cccc(NC(=O)c2ccc(-c3ccc(Br)cc3)o2)c1)c1ccccc1 | 1.2% | -0.7%
COc1ccc(N=C(N)SCc2ccccn2)cc1 | 5.1% | -9.2%
COc1ccccc1CN1CC(C(=O)NCc2nc3ccccc3n2C)CCC1=O (stereo not given) | 2.8% | 0.4%
COc1ccc(S(=O)(=O)Nc2ccc3c(c2)n(C)c(=O)n3C)cc1C | -11.1% | -8.5%
COC(=O)C1=C(C)N=C2SC(C)C(=O)N2C1/C=C/c1ccccc1OC (stereo not given) | 24.8% | 8.9%
COc1ccc(C2=NOC(C(=O)NCC(C)C)C2)cc1 (stereo not given) | -18.9% | -2.9%
CC(C)c1ccc(NC(=O)COc2ccccc2)cc1 | -6.9% | u
COc1cc(OC)c(C2C(C#N)=C(N)OC3=C2C(=O)CC(C)(C)C3)cc1OC (stereo not given) | 6.4% | 19.0%
CC(=O)N(c1ccc(N(C(C)=O)S(=O)(=O)c2cccs2)cc1)S(=O)(=O)c1cccs1 | 2.4% | 3.6%
CC(C)(C)NS(=O)(=O)c1ccc(NC(=O)Cc2ccccc2[N+](=O)[O-])cc1 | -2.2% | -8.1%
Cn1nc(C(=O)NCc2ccc(F)cc2)c2ccccc2c1=O | -1.5% | 0.4%[2.35 µM]
O=C1NCC(=O)N(Cc2ccccc2)/C1=C/c1ccccc1 | -11.4% | 0.7%
CCOC(=O)c1ccc(NC(=O)CN(C)S(=O)(=O)c2ccc(OC)cc2)cc1 | 3.8% | 5.7%
CCC(C(=O)Nc1ncn[nH]1)(C(F)(F)F)C(F)(F)F | -7.7% | 2.5%
O=C(Nc1ccc(F)c(F)c1)C1CCCN(S(=O)(=O)c2cccc3nonc23)C1 (stereo not given) | 9.2%&12.9% | -1.2%
COC(=O)C(C(C)C)N1CCc2c(C)nc3c(C#N)cnn3c21 (stereo not given) | -8.8% | -1.8%
CCOC(=O)N1CCN(C(=O)c2ccc3nc(-c4ccccc4)c(-c4ccccc4)nc3c2)CC1 | -23.4% | -12.8%
COc1ccc2c3c(c(=O)oc2c1OCC(N)=O)CCCC3 | -2.4% | 2.6%
CC(=O)Nc1ccc(NC(=O)CN2C(=O)CN(C)C(=O)c3ccccc32)cc1 | 19.9% | x
C=CCn1c(SCC(=O)N(CC)C2CCS(=O)(=O)C2)nc2cc(C(=O)O)ccc2c1=O (stereo not given) | 17.5% | x
CCCc1nn2c(=O)cc(CSCC(=O)Nc3ccccc3)nc2s1 | -1.1% | 4.8%
Cc1ccc(C(=O)Oc2oc(-c3ccccc3)nc2C=Nc2ccc(N(C)C)cc2)cc1 | 12.4% | 8.5%
CCC(C)(C)NC(=O)c1ccc(S(=O)(=O)N2CCCCCC2)cc1 | -5.5% | -10.6%
CN1CCN(C(=O)c2ccc3c(c2)OCCO3)CC1 | -10.0% | 3.4%
COc1ccc(-c2cc(C(=O)N3CCN(C(=O)c4ccccc4F)CC3)[nH]n2)cc1 | -10.6% | -3.8%
C#CCOCCOCCOCCNc1nc(N2CCN(C(=O)[C@H](CCC(=O)O)n3cc(C(N)CO)nn3)CC2)nc(N2CCN(C(=O)[C@H](Cc3ccc(O)cc3)n3cc(C(N)[C@H](C)CC)nn3)CC2)n1 (stereo not given in full) | 3.2% | 9.3%
CC1Cc2ccccc2N1C(=O)CSCC(=O)O (stereo not given) | -2.6% | 2.9%
COc1cc(OC)cc(OC(=O)C2CCN(C(=O)c3ccc(Cl)cc3)CC2)c1 | -11.9% | x
N#Cc1ccc(C23CC4(C2)[C@H](CN(Cc2ccc(C(F)(F)F)cc2)[C@@H]4c2ccccc2)C3c2ccccc2)cc1 (stereo not given in full) | -15.5% | -8.5%&-3.9%
COc1ccc(NC(=O)CSc2nncs2)cc1OC | 1.8% | 5.2%
Cc1c(Cl)cccc1-n1nnnc1-c1cccs1 | -6.7% | 23.3%
O=C(CSc1nccc(-c2cccs2)n1)Nc1cccc(Cl)c1 | -12.3% | u
COc1ccc(NC(=S)N2CCCCCC2)cc1OC | -15.0% | -1.7%
N#Cc1ccccc1Sc1ccccc1C(=O)OCC(=O)N1CCN(C(=O)c2ccco2)CC1 | -1.6% | 2.0%
CSc1nsc(SCC(=O)Nc2cccc(NC(C)=O)c2)n1 | -7.3% | -15.8%

Brought forward from above: four entries; new compounds follow.
SMILES | FEN1 inhibitor | N370S GC mod
O=C(CSc1nccc(-c2cccs2)n1)Nc1cccc(Cl)c1 | -12.3% | u
COc1ccc(NC(=S)N2CCCCCC2)cc1OC | -15.0% | -1.7%
N#Cc1ccccc1Sc1ccccc1C(=O)OCC(=O)N1CCN(C(=O)c2ccco2)CC1 | -1.6% | 2.0%
CSc1nsc(SCC(=O)Nc2cccc(NC(C)=O)c2)n1 | -7.3% | -15.8%
Cc1ccc(CN2CCSc3ccc(C(=O)NCc4ccc(OC(C)C)cc4)cc32)cc1 | -7.0% | x
COc1ccc(Cc2nnc(SCC(=O)Nc3ccccc3C)n(N)c2=O)cc1 | -1.0% | -7.4%
CCOc1ccc(NC(=O)CSCc2cnn(-c3ccccc3)c2-n2cccc2)cc1 | -17.8% | 12.2%
Cc1ccc(C2C=NN(c3ccccc3)C2=O)cc1 (stereo not given) | 11.4% | -7.2%
CC(C)[C@@H]1CC[C@@H](C)C[C@H]1OC(=O)C[n+]1cc(-c2ccc(Cl)cc2)n2c1CCCCC2 | -0.7% | 1.8%
CC(=O)N1C(=O)N(C(C)=O)C2C1N(C)C(=O)N2C(C)=O (stereo not given) | 18.8% | 4.4%
CCOc1ccc(-c2c(C(=O)N/N=C(\C)c3ccco3)nnn2-c2nonc2N)cc1 | -7.7% | -10.1%
O=C(CS(=O)(=O)c1ccccc1Cl)N1CCOCC1 | -1.5% | -9.7%
O=C(CSc1ccc(Br)cc1)NCC(c1cccs1)N1CCOCC1 (stereo not given) | 2.0% | -3.3%
O=C(NCCc1ccc(Cl)cc1)C1CCN(S(=O)(=O)c2cccs2)CC1 | 9.5% | u
CC(C)NC(=O)c1cc2c(s1)CCCC2 | -4.0% | 3.5%
COc1ccc(OC)c2c1CC(C)(C)NC2=O | -12.6% | 3.2%
CCN(c1cccc(C)c1)S(=O)(=O)c1ccc2c(c1)NC(=O)CS2 | -19.8% | -10.0%
Cc1c([N+](=O)[O-])c(C/C=N/O)nn1C | 0.0% | 1.1%
Cc1ccc(N2CCN(C(=O)c3ccccc3F)CC2)c(C)c1 | -4.1% | -9.3%
COc1cc(C)c(Cl)c(C)c1S(=O)(=O)NCc1cccnc1 | -10.1% | -23.3%
C=CC[C@@H]1Cc2c(Br)ccc(Br)c2[C@@H](CC=C)N1 | -3.9% | 9.4%
Cc1ccc(-c2nc(CS(=O)CC(=O)NCCCN3CCN(Cc4ccccc4)CC3)c(C)o2)cc1 (stereo not given) | 41.7%[activator] | -2.5%
CCOC(=O)c1c(NC(=O)N/N=C/c2ccccc2OCC)sc(C(C)=O)c1C | -18.5% | 1.1%
Cc1c(C(=O)Nc2c(F)cccc2F)sc2ncn(Cc3ccccc3F)c(=O)c12 | -0.2% | x
COc1ccc(CCNC(=O)c2ccc(Cn3c(=O)c4ccccc4n(CC(=O)C(C)(C)C)c3=O)cc2)cc1OC | -6.0% | x
CCCc1cc(O)c2c(C)cc(=O)oc2c1 | -3.0% | 7.4%
Cc1cc2nc(-c3cccnc3SCC(=O)NCc3ccco3)[nH]c2cc1C | -18.0% | 24.7%
CCOc1cc(CNn2nnnc2N)cc(Cl)c1OCC(=O)NC(C)(C)C | -5.5% | 0.6%
Cc1cccnc1NC(=O)c1csnn1 | 14.2% | -7.7%
CCN1C(=O)c2ccccc2S(=O)c2ccc(C(=O)NCc3ccc(Cl)cc3)cc21 (stereo not given) | -20.4% | x
COc1ccc(/C=C2\SC(=N)N(c3ccc(F)cc3)C2=O)cc1OC | -1.3% | -22.7%
CCCc1nc(SCC(=O)c2ccc(F)cc2)c2ccccc2n1 | u | -1.2%
CCOC(=O)c1cccc(NC(=O)CSc2nnc(-c3ccoc3C)n2CCOC)c1 | -4.6% | 4.0%
Cc1ccc(Sc2ncccc2C(=O)N(C)Cc2cccs2)c(C)c1 | 0.1% | -5.4%
CCOC(=O)c1ccc(N=C2C(=S)N(c3ccc(C(=O)OCC)cc3)C(=N)N2/N=C/c2ccccc2)cc1 | -6.6% | -8.6%
CN(CC(=O)Nc1ccc(F)cc1F)S(=O)(=O)c1cccc2nsnc12 | 19.1% | x
COc1ccnc(Oc2ccc(Cl)cc2)c1C#N | 8.8% | 0.0%
COC(=O)c1ccccc1Nc1ccccc1 | -13.0% | 9.4%
O=C(Nc1ccccc1N1CCOCC1)C1CCN(S(=O)(=O)c2ccc(Cl)cc2)CC1 | 18.1% | -8.0%
O=C(Nc1ccc(Oc2ccc(NC(=O)C3CCCO3)cc2)cc1)C1CCCO1 (stereo not given) | 7.9% | 24.3%
COc1ccc(NC(C)=O)cc1NC(C)C(=O)Nc1ccccc1F (stereo not given) | -12.5% | 4.2%
CN(Cc1cccs1)C(=O)CCNS(=O)(=O)c1ccc(Br)cc1 | 18.7% | x
O=C(O)c1cc(/C=C/c2ccc(N3CCOCC3)cc2)nc2ccccc12 | -3.9% | -8.4%
CCN(CC(=O)NCc1cccs1)S(=O)(=O)c1ccc([N+](=O)[O-])cc1 | -14.5% | -3.6%
CC(C)(C)c1ccc(C(=O)N2CCN(Cc3ccccc3)CC2)cc1 | 6.9% | -5.3%
CC1CCN(C(=S)NC2CC3CCC2C3)CC1 (stereo not given) | -5.2% | -16.3%
COCCn1c(-c2ccccc2)nc2ccccc21 | 9.8% | -14.3%
Cc1ccc(OCCNC(=O)/C=C/c2ccc([N+](=O)[O-])cc2)cc1C | -7.7% | -2.6%[12.8 µM]
Cc1cccc(C)c1NC(=O)COC(=O)c1cc[n+]([O-])cc1 | 2.7% | -0.1%
CC(=O)Nc1ccc(Oc2cc(N)cc([N+](=O)[O-])c2)cc1 | 15.7% | -4.8%
O=C(NC(=S)Nc1ccc(S(=O)(=O)N2CCCCC2)cc1)c1ccccc1 | -3.2% | 1.1%
CC(C)(C)c1[nH]nc2c1C(C1C=CCCC1)C(C#N)=C(N)O2 (stereo not given) | -8.9% | -21.2%
Cn1c(N)c(C(=O)CSc2nnc(C3CC3)n2N)c(=O)n(C)c1=O | -5.8% | x
CC(=C1C(=O)c2ccccc2C1=O)N1CCN(c2ccccn2)CC1 | 7.0% | -18.3%
N/C(=N\OC(=O)Oc1ccccc1)c1ccc(Br)cc1 | 5.0% | 9.5%
COc1ccc(C(=O)Nc2ccc3c(c2)Cc2ccccc2-3)cc1 | 7.6% | 16.0%
CCCCn1cc2c(c1-c1ccc(Br)cc1)c(=O)n(C)c(=O)n2C | -3.1% | x
O=C(CSc1nc2c(c(C(F)(F)F)n1)CCc1ccccc1-2)NCc1ccc(F)cc1 | 22.5% | 2.9%
Cn1c(N)c(C(=O)COC(=O)c2ccc(F)cc2Cl)c(=O)n(C)c1=O | -6.0% | x
O=C(NCc1ccccc1Cl)C1CCCN1S(=O)(=O)c1ccccc1F (stereo not given) | -1.5% | 0.2%
COc1ccc(CCN2CC(C(=O)NCCc3cccnc3)CCC2=O)cc1 (stereo not given) | -0.1% | -13.2%
O=C(Cn1nc(Cc2cccnc2)c2ccccc2c1=O)Nc1ccc2c(c1)OCO2 | -5.0% | 2.3%

Exported tab-delimited: entries from further up
Structure	FEN1 inhibitor	N370S GC mod
CCOC(=O)c1c(NC(=O)N/N=C/c2ccccc2OCC)sc(C(C)=O)c1C	-18.5%	1.1%
COc1cc(C)c(Cl)c(C)c1S(=O)(=O)NCc1cccnc1	-10.1%	-23.3%
O=C(NC(=S)Nc1ccc(S(=O)(=O)N2CCCCC2)cc1)c1ccccc1	-3.2%	1.1%
Cn1c(N)c(C(=O)COC(=O)c2ccc(F)cc2Cl)c(=O)n(C)c1=O	-6.0%	x
O=C(NCc1ccccc1Cl)C1CCCN1S(=O)(=O)c1ccccc1F (stereo not given)	-1.5%	0.2%
CCOc1ccc(NC(=O)CSCc2cnn(-c3ccccc3)c2-n2cccc2)cc1	-17.8%	12.2%
COc1ccc(CCNC(=O)c2ccc(Cn3c(=O)c4ccccc4n(CC(=O)C(C)(C)C)c3=O)cc2)cc1OC	-6.0%	x

Compound activity deposited in PubChem by National Center for Advancing Translational Sciences (NCATS).
